# PrP 5UTR inh: inhibition of PrP 5' UTR reporter expression; cell-based PrP 5' UTR mRNA reporter, plate reader; inhibition, % (concentration not given with the values); hit rate 0.35% among 340,000; AID 488862, 2010;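 active = every replicate at 50% or more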;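 also: 0 = median of the neutral control wells; tested in H4 reporter cells; numbers are from one replicate; inactives centre near -14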
# Mtb hypoxia rep: PubChem AID 1159583; M. tuberculosis hypoxia-regulated fluorescent reporter, fluorescence; hit rate 0.1% among 300,000; fluorescence inhibition, % (test concentration not listed);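 active = 35 to 45% if threefold the growth effect, above 45% if 1.5-fold the growth effect; inactive = the rest, general growth blockers included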;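 also: wells of about 50 µL received 100 nL stock; 0% = vehicle wells and 100% = reference inhibitor wells; whole bacteria with a GFP reporter of the hypoxia response; strong numbers were not always called active; many hits fall short of the cut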
# RN4220 kill: growth inhibition of S. aureus RN4220, primary screen, OD600; 16 h; inhibition, % (concentration not given with the values); hit rate 0.33% among 330,000; AID 1259311, 2017;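 active = z-score of -3 or lower and OD600 up to 0.18 on both plates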;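 also: plate controls were untreated cells for no effect and reference antibiotic for full effect; stock transfer was 100 nL into about 80 µL; one replicate is shown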
# BJeLR viability: MLPCN primary cell-based screen for lethality selective to Ras in HRASV12 cells; BJeLR (HRASV12) viability, CellTiter-Glo ATP luminescence, 48 h; reference of the scale not given here; inhibition, % (test concentration not listed); hit rate 0.17% among 300,000; AID 1554, 2009;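 active = replicate mean above 50%; inconclusive = above 50% but judged a plate artefact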;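 also: 50 nL library stock added to about 25 µL; numbers are from one replicate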
# ugtP null kill: growth inhibition of ugtP-null S. aureus, primary screen, RN4220 ugtP deletion, OD600; 16 h; some inactives read as strong as hits; growth inhibition, % (no concentration beside the values); hit rate 0.54% among 330,000; AID 1259309, 2017;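 active = z-score under -3 and OD600 up to 0.15 on both plates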;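 also: plate controls were untreated wells for no effect and antibiotic for full effect; wells of about 80 µL received 100 nL stock; the first replicate is given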
# Bead autofluor: compound fluorescence in toxin protease inhibitor counterscreen. compound autofluorescence counterscreen, microsphere flow cytometry; hits give high values. fluorescence intensity (no concentration beside the values). hit rate 3.1% among 360,000. AID 624483;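 active = at least 3 SD above the mean of all compounds, about 16000 in these data; inconclusive = too few beads counted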;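 also: 100 nL of 1 mM stock went into each well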
# Mtb hypoxia rep growth: also measured in Mtb hypoxia rep; calls as there; growth inhibition, %; measured here: M. tuberculosis growth (absorbance);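 0% = vehicle and 100% = reference antibiotic; read after six days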
# Starred values were filed as active, the others as inactive; ? = inconclusive; / = no result given.
SMILES	PrP 5UTR inh	Mtb hypoxia rep	Mtb hypoxia rep growth	RN4220 kill	BJeLR viability	ugtP null kill	Bead autofluor
CCOc1ccc(CCNC(=O)COC(=O)c2oc3ccccc3c2COC)cc1OCC	-33.7	16.7	2.9	4.7	/	-4.6	4099
COc1ccc(S(=O)(=O)N2CCC(C(=O)NC3CCCC3)CC2)cc1C	-5.8	-1.6	-7.3	3.9	-5.0	-1.4	4394
COc1ccc(/C=N/NC(=O)c2ccc(N3CCCC3=O)cc2)cc1	-9.3	/	/	/	-7.7	/	?
O=C(CSc1nnc(NC(=O)c2cccc(F)c2)s1)NCc1ccco1	-32.4	5.5	3.4	-0.7	2.6	4.8	5381
CCC1(c2ccccc2)NC(=O)N(CC(=O)N2CC(=O)Nc3ccccc32)C1=O (stereo not drawn)	8.2	7.1	1.5	-1.5	/	-4.7	/
CCn1c(SCC(=O)Nc2ccccc2OC)nnc1-c1cnccn1	-10.6	2.7	0.6	4.0	8.7	6.4	16989*
CC(=O)C1=C(O)C(=O)N(Cc2ccccc2)C1c1ccco1 (stereo not drawn)	-9.9	/	/	-0.3	-2.2	-0.6	3324
O=C(Nc1cccc(-c2cn3c(n2)SCC3)c1)c1ccc2c(c1)OCO2	-23.1	-0.7	4.6	3.8	6.0	5.8	4939
CCN(CC)CCC(=O)NN	-4.0	11.0	1.5	-3.3	-9.6	-0.5	3966
COc1ccc(C2CC(=O)C=C(c3ccc(O)cc3)C2)cc1OC (stereo not drawn)	/	5.4	2.7	7.9	/	-7.3	/
O=C(Nc1nc2c(s1)CCCC2)c1cc(-c2ccc3c(c2)OCO3)nc2ccccc12	/	-2.4	-3.7	2.3	7.2	-9.4	/
CCOC(=O)C1=C(C)NC(=O)NC1C (stereo not drawn)	-17.3	15.6	7.9	7.1	0.3	11.1	6475
CC12CCC(=O)N1c1c(sc3nc(N4CCOCC4)c4c(c13)CCCC4)C(=O)N2 (stereo not drawn)	-14.5	13.8	12.9	-0.3	-4.1	-14.1	3756
CC(=Cc1ccccc1)C(=O)NCc1ccco1	/	/	/	7.5	/	3.5	/
O=C(Nc1cccc(-c2nc3ccccc3[nH]2)c1)c1cccc(NC(=O)c2ccco2)c1	-11.2	-1.7	5.9	8.9	6.2	-0.7	12389

# Record cards, as listed above. Order of values: PrP 5UTR inh, Mtb hypoxia rep, Mtb hypoxia rep growth, RN4220 kill, BJeLR viability, ugtP null kill, Bead autofluor
# CCOc1ccc(CCNC(=O)COC(=O)c2oc3ccccc3c2COC)cc1OCC as listed: -33.7, 16.7, 2.9, 4.7, /, -4.6, 4099
# O=C(Nc1cccc(-c2cn3c(n2)SCC3)c1)c1ccc2c(c1)OCO2 as listed: -23.1, -0.7, 4.6, 3.8, 6.0, 5.8, 4939
# CCn1c(SCC(=O)Nc2ccccc2OC)nnc1-c1cnccn1 as listed: -10.6, 2.7, 0.6, 4.0, 8.7, 6.4, 16989*
# CCN(CC)CCC(=O)NN as listed: -4.0, 11.0, 1.5, -3.3, -9.6, -0.5, 3966

# More entries.
SMILES	PrP 5UTR inh	Mtb hypoxia rep	Mtb hypoxia rep growth	RN4220 kill	BJeLR viability	ugtP null kill	Bead autofluor
Cc1ccc(Oc2nc3c(C)cccn3c(=O)c2/C=C(\C#N)C(N)=O)cc1	-6.7	-3.0	2.1	3.9	4.2	0.3	3615
CCOC(=O)C1=C(C)N=c2sc(=C3C(=O)Nc4ccccc43)c(=O)n2C1c1ccc2c(c1)OCO2 (stereo not drawn)	/	6.2	8.1	1.0	/	-20.7	/
Cc1c(Cc2ccccc2)c(=O)oc2cc(OCC(=O)NCC3CCC(C(=O)O)CC3)ccc12 (stereo not drawn)	-7.7	/	/	2.1	5.0	12.6	4147
CCOC(=O)c1[nH]c2ccc(OC)cc2c1C(SCC(=O)O)c1ccc(C(F)(F)F)cc1 (stereo not drawn)	-26.0	14.4	6.6	13.0	-7.2	57.9	3541
Cc1cccc(OCC(=O)NC(=S)N2CCCc3ccccc32)c1	-22.3	6.8	2.9	6.6	-0.4	1.2	5870
COc1ccc(NS(=O)(=O)c2cc(NC(=O)c3ccc(C)o3)ccc2N2CCCCC2)cc1	-15.7	-6.9	-0.3	-2.1	-2.4	-12.6	1941
CC1=NNC(=O)C1CCC(=O)NN=Cc1ccccc1 (stereo not drawn)	/	-10.6	5.0	4.5	/	0.0	/
CCCc1cc(C(=O)NNC(=S)NC(C)c2ccccc2)cs1 (stereo not drawn)	-10.2	4.2	6.4	1.1	-6.7	1.6	11481
C/C(C=NNc1nnc2c(n1)[nH]c1c(C)cccc12)=C\c1ccco1	/	6.3	0.3	-0.1	/	0.4	/
CC(=O)OC1CC(C)N(C(=O)c2ccccc2)c2ccc(C)cc21 (stereo not drawn)	-23.9	9.4	5.7	6.8	-2.4	-2.3	25080*
CCOc1cccc(CN2CCCC(CCC(=O)NCc3ccccc3F)C2)c1O (stereo not drawn)	-2.0	3.9	7.7	3.3	13.9	1.3	4487
Cc1cccc(OCC(=O)N2CCC(N3CCOCC3)CC2)c1	3.6	/	/	-0.6	8.9	-1.6	5128
CSc1nc(N)c2c3c(sc2n1)CN(C)CC3	-5.9	/	/	/	-0.2	/	4069
Cc1ccc2c(c1)S/C(=C/c1ccc[n+](C)c1)N2CCO	-4.5	5.7	15.5	3.5	2.8	1.0	3454
O=C(NCc1cccnc1)NC1(C(F)(F)F)Oc2ccccc2O1	-16.9	5.3	5.1	9.6	-18.8	3.6	4036
CN(CCC1CCOCC1)C(=O)CC1C(=O)NCCN1C/C=C/c1ccccc1 (stereo not drawn)	-9.4	-8.0	-6.9	-1.0	8.3	-1.6	4433
Cc1cc(N2C(=O)Cc3ccccc3C2=O)ccc1C(C)C	12.7	9.8	-3.9	3.2	1.8	5.0	3142
O=C(O)c1cccc2c(/C=N/Nc3ccccn3)c[nH]c12	-12.3	/	/	/	-4.3	/	4169
O=C(Nc1ccccc1Cl)C1(c2ccccc2)CC1(Cl)Cl (stereo not drawn)	-10.9	3.1	6.2	8.8	8.8	41.1	2463
O=C(O)C1CCC(N2C(=O)c3cccc([N+](=O)[O-])c3C2=O)CC1 (stereo not drawn)	-20.6	9.0	9.4	-1.4	1.4	8.5	3827
N#Cc1nc(Cc2cccc3ccccc23)oc1NCc1ccc2c(c1)OCO2	-22.1	10.7	2.8	-10.5	5.4	-14.8	3409
COc1ccccc1NS(=O)(=O)c1ccc2oc(=O)ccc2c1	-4.1	6.2	7.5	3.6	9.2	6.7	3416
Cn1c(CCC(=O)Nc2ccc(S(C)(=O)=O)cc2)nc2cc(S(=O)(=O)N3CCOCC3)ccc21	8.4	0.8	3.4	1.2	/	4.2	2613

# Single values from the results shown:
# O=C(O)c1cccc2c(/C=N/Nc3ccccn3)c[nH]c12 in Bead autofluor reads 4169
# COc1ccccc1NS(=O)(=O)c1ccc2oc(=O)ccc2c1 in PrP 5UTR inh reads -4.1
# O=C(O)C1CCC(N2C(=O)c3cccc([N+](=O)[O-])c3C2=O)CC1 (stereo not drawn) in Mtb hypoxia rep growth reads 9.4

# Bioassay records as filed in PubChem.
